Screening data deposited in PubChem by National Center for Advancing Translational Sciences (NCATS).
Sfp PPTase inh = Sfp phosphopantetheinyl transferase inhibition; Q9F4F7; Biochemical Sfp PPTase activity, qHTS; Potency, µM, inactives show max response, negative = inhibition, actives largely listed as inhibitors; hit rate 3.5% among 310,000; AID 1490; active = well fitted inhibition curve with a large enough effect; inconclusive = small, poorly fitted or top-dose-only effect, or another doubt; inactive = no such curve, though single readings can be large or run the other way;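 also: the enzyme is Sfp with the accession as filed and its product quenches rhodamine fluorescence; potency is read from the fitted curve at half-maximal effect; 0% = enzyme reaction without inhibitor and -100% = no enzyme wells; top concentration of the series not given in the record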
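Fluorescence-quenching assay: 15 nM Sfp-PPTase preincubated 15 min at room temperature with compound, then 5 uM rhodamine-CoA and 12.5 uM BHQ-2-labelled YbbR peptide added. Fluorescence (ex 525/em 598 nm) read at start and after 30 min; difference gives rate.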
CtBP-E1A blk = inhibitors of CtBP/E1A interaction | AlphaScreen GST-E1A/His-CtBP binding, 1536-well; hits give low values; control for the full effect not named in the record | activity change, % (concentration not given with the values) | hit rate 0.49% among 340,000 | AID 651724; in the data active means activity change below about -65%; inconclusive means about -30% to -65%; inactive means above about -30%; also: % is scaled to controls: 0 for no effect and ±100 for the full control effect
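Steps: dispense buffer (Tris pH 8.0, NaCl 300 mM, TCEP 1 mM, BSA, Tween 20); add 5X protein mix (GST-E1A, His-CtBP, 125 nM each); pin 23 nL compound; 2 h at 37 °C, dark; add 5X beads (50 ug/mL); 1 h; read.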
TRPV1 PAM = human TRPV1 potentiation | Q8NER1 | TRPV1-expressing cells, Fluo-8 calcium influx, capsaicin EC20 potentiation; host cell line not named in the record; control for the full effect not named in the record | potentiation, % at 8.33 µM | hit rate 0.02% among 320,000; active means potentiation above 80%; inconclusive means 30% to 80%; inactive means below 30%; also: 0% is about no effect
Target sequence (Q8NER1 whole entry, looked up): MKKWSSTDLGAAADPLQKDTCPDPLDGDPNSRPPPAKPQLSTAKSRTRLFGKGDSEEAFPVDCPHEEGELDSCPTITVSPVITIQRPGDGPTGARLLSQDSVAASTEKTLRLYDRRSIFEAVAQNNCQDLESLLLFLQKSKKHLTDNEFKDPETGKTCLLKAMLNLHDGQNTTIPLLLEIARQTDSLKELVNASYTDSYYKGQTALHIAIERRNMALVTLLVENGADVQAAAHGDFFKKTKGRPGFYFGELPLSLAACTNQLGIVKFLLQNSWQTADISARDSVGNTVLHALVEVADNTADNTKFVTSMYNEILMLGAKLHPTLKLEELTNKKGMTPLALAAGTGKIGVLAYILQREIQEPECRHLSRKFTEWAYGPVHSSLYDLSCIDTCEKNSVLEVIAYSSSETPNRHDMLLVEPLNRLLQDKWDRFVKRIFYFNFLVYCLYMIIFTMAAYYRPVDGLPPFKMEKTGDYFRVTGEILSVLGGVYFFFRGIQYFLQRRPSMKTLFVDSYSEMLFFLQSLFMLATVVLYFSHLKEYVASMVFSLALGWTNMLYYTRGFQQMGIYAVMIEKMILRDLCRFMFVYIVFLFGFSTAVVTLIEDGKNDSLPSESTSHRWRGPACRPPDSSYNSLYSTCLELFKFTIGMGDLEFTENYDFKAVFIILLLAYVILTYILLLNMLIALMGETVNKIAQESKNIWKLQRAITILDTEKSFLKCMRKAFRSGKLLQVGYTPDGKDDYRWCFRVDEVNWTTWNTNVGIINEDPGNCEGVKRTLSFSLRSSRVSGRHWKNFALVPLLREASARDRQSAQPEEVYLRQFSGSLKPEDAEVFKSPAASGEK
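Fluo-8 calcium influx in TRPV1-expressing cells, kinetic read (ex 480/em 520 nm). Compound added and read 3 min for agonist activity, followed by capsaicin at EC20 final and 2 min further read for enhancement.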
Menin-MLL FL inh = displaces fluorescein MLL peptide from human menin; Fluorescence polarization, fluorescein-MLL peptide displacement from menin; FP activity change, % at 61.4 µM; 290,000 tested, under 10 active; AID 1766; inconclusive = falling polarisation curve, or a change in total fluorescence; inactive = total fluorescence flat and polarisation flat or rising; no compound was filed as active; the % refers to the polarisation; negative = inhibition;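 also: % of control where 0% means no effect; inhibitors lower the polarisation; unlabelled MLL peptide was the positive control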
ClpP mod = qHTS Assay for Activators of ClpP; AID 651965, 2013; Potency, µM (series often up to 57.5 µM), without a hit: at the highest dose activity change, negative = active; hit rate 1.9% among 340,000; ATP-dependent Clp protease proteolytic subunit (Bacillus subtilis (strain 168)), P80244; purified B. subtilis ClpP, FRET peptide cleavage, 20 min; active = well fitted falling curve with a large enough effect; inconclusive = small, poorly fitted or top-dose-only effect; inactive = no such curve, though single readings can be large or run the other way; also: potency is read from the fitted curve at half-maximal effect; the source files actives as falling curves though it sought activators and does not explain the sign; nearly all actives have a fitted effect of over 65% in size; many hits overshoot -100%
Target sequence (P80244 whole entry, looked up): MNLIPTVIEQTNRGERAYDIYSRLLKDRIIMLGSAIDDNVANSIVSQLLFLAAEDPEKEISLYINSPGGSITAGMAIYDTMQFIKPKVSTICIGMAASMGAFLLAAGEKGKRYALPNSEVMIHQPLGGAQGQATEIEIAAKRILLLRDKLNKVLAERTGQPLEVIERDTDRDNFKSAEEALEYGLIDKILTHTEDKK
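Buffer: 100 mM Tris/HCl pH8, 100 mM KCl, 0.05% low protease BSA, 2.5% glycerol, 0.01% Tween-20. ClpP 10 microg/mL final; 20 min RT; delta FRET normalized to ADEP and DMSO controls.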
gsp antagonist = antagonists of gsp mutant (McCune-Albright syndrome) | hit rate 0.4% among 340,000 | Potency, µM (top dose mostly 76.9 µM), for inactives: top-dose activity change, negative = inhibition, hits mostly inhibitors | gsp-mutant cells, cAMP HTRF, 30 min; control for the full effect not named in the record; active = falling curve of any shape with a large fitted effect; inconclusive = falling curve, mostly with a smaller effect; inactive = flat or rising curve; cell line not stated here;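 also: intracellular cAMP measured with PDE inhibitor Ro 20-1724 present during compound exposure; potency is read from the fitted curve at half-maximal effect; % is scaled to controls: 0 for no effect and ±100 for the full control effect; nearly all actives have a fitted effect of over 65% in size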
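HTRF cAMP read-out (cAMP-d2 plus anti-cAMP antibody-K in lysis buffer, 30 min RT). Before lysis, cells are exposed to compounds with […] for 30 min at 37C in DPBS containing Ca/Mg, BSA and Tween 20.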
gsp agonist = gsp mutant agonism; gsp mutant cells, cAMP HTRF, 30 min; control for the full effect not named in the record; Potency, µM (titrated, usually from 76.9 µM), inactives show at the highest dose activation (cAMP increase), usual class: activators; hit rate 0.13% among 340,000; active = well fitted activation curve with a large enough effect; inconclusive = small, poorly fitted or top-dose-only effect, or another doubt; inactive = no such curve, though single readings can be large or run the other way; cell line not stated here;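 also: phosphodiesterase inhibitor Ro 20-1724 added with compounds to block cAMP breakdown; potency is read from the fitted curve at half-maximal effect; nearly all actives have a fitted effect of over 60% in size; about a fifth of the inactives were tested at one dose only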
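Cells in DMEM/10% FBS with G418 were pretreated with compounds in DMSO plus […] (300 uM stock) for 30 min at 37C. cAMP was measured by HTRF (cAMP-d2 plus anti-cAMP antibody-K) after 30 min at room temperature.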
* = called active by the depositor; ? = inconclusive; . = not tested or not shown; [ ] = remark or other dose.

Results follow in this order: Sfp PPTase inh, CtBP-E1A blk, TRPV1 PAM, Menin-MLL FL inh, ClpP mod, gsp antagonist, gsp agonist
> C#CCOCCOCCOCCNc1nc(N2CCN(C(=O)[C@H]([C@@H](C)CC)n3cc([C@@H](N)Cc4ccc(O)cc4)nn3)CC2)nc(N2CCN(C(=O)[C@H](Cc3cc4ccccc4[nH]3)n3cc([C@@H](N)C(C)CC)nn3)CC2)n1 (stereo not given in full)
    -15%, ., 7, -0.2, ., ., .
> COc1cc(N(CCCn2cnc3c(SC)ncnc32)CCCn2cnc3c(SC)ncnc32)cc(OC)c1OC
    ., 3, ., ., -0.8%, ., 25%
> NCCCC[C@H]1CN=C(N)N1CCc1cccc2ccccc12
    ., -9, ., ., -1.1%, -5%, 11%
> O=c1c2cn[nH]c2[nH]c(=S)n1-c1ccccc1
    14µM*, 8, 6, -0.3, -0.6%, ?, -42%
> COc1ccc(-c2nc(SC)n(C(=O)c3ccco3)n2)cc1
    -15%, -3, -6, -1.3, ?, -7%, -7%
> Cc1ccc(S(=O)(=O)NC2=NCN(CCOC(=O)c3ccccc3)CN2)cc1
    3%, -1, 20, -5.6, -1.2%, 3%, -48%[inhibitor]
> Cc1c(Cl)cccc1NC(=O)C1C2C=CC(C2)C1C(=O)O (stereo not given)
    -25%, -4, -2, -6.2, -0.6%, -1%, 1%[15.4 µM]
> CCOC(=O)CNC(=S)N1CCn2c(nc3ccccc32)C1
    15%, ., 0, -2.2, -0.3%, -5%, 7%
> COc1cc(CC(=O)OCC(=O)NCc2cccs2)cc(OC)c1OC
    ., -2, ., ., -4.9%, -4%, 7%[15.4 µM]
> Cc1cc(NC(=O)CN(C)S(=O)(=O)c2cnc[nH]2)ccc1Br
    9%, -1, 19, ., -0.6%, -3%, 8%
> O=C(Nc1ccc(Br)cc1)C1CCC(=O)N1Cc1ccccc1Cl (stereo not given)
    -2%, -1, 2, -1.1, -0.4%, -6%, -100%[inhibitor]
> COC(=O)c1cccc(F)c1C(=O)c1cccc2ccccc12
    ., 11, ., ., ., -12%, -23%
> CCN(CC)S(=O)(=O)c1ccc2c(c1)nc(CCC(=O)OCC(=O)Nc1c(F)cccc1F)n2C
    -17%, 8, -4, ., 0.3%, -11%, -47%[inhibitor]
> O=C(Nc1ccc2c(c1)OCCO2)c1c(Cl)cccc1Cl
    ., 0, ., ., 0.1%, ., 0%
> COc1ccccc1CNCC(O)(c1ccc(F)cc1)c1ccc(F)cc1
    18%, ., -5, 1.2, 1.6%, 0%, -28%
> O=C(NCc1ccc2c(c1)OCO2)c1ccc(CSCc2ccccc2Cl)o1
    -2%, -3, -8, 2.4, -0.9%, -1%, 13%
> CC(=O)N1Cc2ccccc2C(C)CC12CCCCC2 (stereo not given)
    -5%, 10, -9, -0.5, -3.4%, -3%, -25%
> Cc1c(Cl)cccc1N/C(=N/S(=O)(=O)c1cccs1)c1ccccc1
    -4%, 3, 29, -3.1, 0.5%, ?, 1%[15.4 µM]
> COc1ccc(-c2[nH]ncc2/C=C(/C#N)C(=O)NC2CCCCC2)cc1
    -4%, 0, 2, 6.2, -1.5%, -11%, 2%
> COc1ccc(S(=O)(=O)N(C)C[C@H]2Oc3c(NC(=O)Nc4ccc(C(F)(F)F)cc4)cccc3C(=O)N([C@H](C)CO)C[C@@H]2C)cc1
    ., -4, ., ., -1.3%, -23%, 26%
> CCC(C)[C@H]1CNC(=S)N1CCc1cc(C(F)(F)F)cc(C(F)(F)F)c1 (stereo not given in full)
    26%, 3, 7, -3.1, 4.9%, -5%, 23%
> Cc1csc(NC(=O)CSc2nnc(-c3ccco3)n2C)n1
    1%, -4, 14, 1.6, -2.9%, 3%, 0%
> CC(=O)Nc1ccc(N2C(=O)CC(N3CC(C)OC(C)C3)C2=O)cc1 (stereo not given)
    -18%, 4, -7, 3.1, -0.1%, 2%, -60%[inhibitor]
> OCC[C@@H]1C[C@H](O)[C@@H](O)[C@]2(Cc3ccccc3O2)O1
    17%, 7, 19, 5.0, 0.9%, 19%, -29%
> Cc1oc(-c2cccs2)[n+]([O-])c1C
    3%, 2, -11, 0.2, -0.8%, -2%, -29%
> COc1ccc(C(=O)NCCC(C)C)cc1S(=O)(=O)N1CCOCC1
    13%, 1, -1, -2.6, 1.5%, 3%, -30%
> O=C(Nc1cc(F)ccc1F)C1CCCN(c2ncnc3c2nc2n3CCCCC2)C1 (stereo not given)
    -1%, ., -8, 4.1, -0.6%, ?, -21%
> O=C1COCC(=O)N1CCc1c[nH]c2ccccc12
    -11%, 5, -7, 1.1, ., 0%, -17%[15.4 µM]
> Cc1ccc(S(=O)(=O)N2CCN(C(=O)COC(=O)c3ccccc3Cl)CC2)c(C)c1
    ., -19, 3, ., -1.3%, -25%, 7%
> COc1cc(C(=O)N2c3ccccc3CCC2C)cc(OC)c1OC (stereo not given)
    18%, 6, 3, -7.0, 0.0%, -1%, 10%[15.4 µM]
> COc1cc(/C=C/c2ccc3cccc([N+](=O)[O-])c3n2)ccc1OCC(=O)O
    2%, -26, 0, 0.5, 0.8%, 9%, 14%
> CC1CCC(C(C)C)C(OC(=O)COC(=O)c2cc(O)ccc2N)C1 (stereo not given)
    -3%, -9, -42, 3.0, ?, -9%, -15%
> Cc1ccc(CNC(=O)C2=CCN(S(=O)(=O)c3ccc(C)cc3)CC2)cc1
    -14%, ., -2, 4.7, ., ., .
> CC(=O)OCC(=O)C1(O)CCC2C3CC(C)C4=CC(=O)C=CC4(C)C3=CCC21C (stereo not given)
    ., 6, ., ., ., -8%, 14%
> Nc1ccc(-c2nnnn2-c2ccc(N)cc2)cc1
    17%, 19, -3, 1.4, ., -11%, -50%[inhibitor]
> Cc1ccc(NS(=O)(=O)c2ccc3c(c2)oc(=O)n3C)cc1F
    -5%, 6, -13, -0.2, -0.5%, 1%, ?
> CC(C)(C)c1nnc(NS(C)(=O)=O)s1
    ., -10, ., ., -3.0%, -5%, ?
> CCC(C)N(C(=O)CSc1nc(C)c(C)c(C)c1C#N)C1CCS(=O)(=O)C1 (stereo not given)
    ., -1, -6, ., -6.8%, 1%, -19%
> O=C(CC1C(=O)NCCN1Cc1cccc(F)c1)NCCCN1CCCC1=O (stereo not given)
    -11%, 1, 6, -25, -11%, 13%, -2%[15.4 µM]
> CS(=O)(=O)N(CC(=O)N1CCCCCC1)c1ccc2c(c1)OCCO2
    12%, -18, -14, 0.1, 0.1%, 4%, -13%
> C/C=C/C=C/C(=O)OC(C)C(=O)Nc1cc([N+](=O)[O-])ccc1OC (stereo not given)
    -17%, -7, -6, 0.1, -0.9%, -12%, -11%[15.4 µM]
> CCCC(C)c1nnc(NC(=O)CN2C(=O)c3ccccc3C2=O)s1 (stereo not given)
    45µM*, 3, -10, -3.2, 2.7%, 3%, -12%
> Nc1cccnc1Sc1cccc(Cl)c1
    3.2µM*, 0, 0, 1.7, ?, 7%, -4%
> Cc1cc2nc3n(c2cc1C)CC1CC(C(=O)NCCC(C)C)N(C)C31 (stereo not given)
    ., ., 2, ., 0.2%, 1%, -27%
> CCN1CCN(c2ccc(S(=O)(=O)N3CCOCC3)cc2NC(=O)c2cc(Cl)nc3ccccc23)CC1
    ., 1, 2, ., -3.7%, 7%, 31%[15.4 µM]
> COC(=O)Cn1nc(-c2ccccc2)c2ccccc21
    -7%, 10, 10, -3.5, -15%, -9%, -21%
> CCOC(=O)c1sc(NC(=O)c2cc3ccccc3o2)nc1C
    13%, 2, -9, -3.2, -0.2%, -12%, 7%[15.4 µM]
> CCOC(=O)C1=C(C)C/C(=N\NC(=O)c2ccccc2O)CC1
    22%, -20, -25, 2.3, -4.0%, -2%, -18%
> COC(=O)C1(CO)NC(c2ccc(C)cc2)C2C(=O)N(c3ccccc3)C(=O)C21 (stereo not given)
    19%, 8, 12, 4.6, 0.9%, -1%, 3%
> COc1ccc(/C(=N/O)C(C)(C)NO)cc1
    ?, 6, 3, 2.9, -1.1%, 6%, 3%
> COc1ccc(CN(C)Cc2ccccc2)c(OC)c1OC
    11%, 1, -1, 1.5, ?, 0%, -43%
> COc1ccccc1S(=O)(=O)N1CCNC(=O)C1
    ., 9, ., ., 0.3%, 12%, 0%[15.4 µM]
> O=C(CCSc1nnc(-c2ccncc2)o1)Nc1ccccc1Cl
    7%, 0, -24, 5.9, -2.3%, -8%, -50%[inhibitor]
> CN1C(C(=O)NCc2cccc(C(F)(F)F)c2)CC2Cn3c(nc4cc(Cl)c(Cl)cc43)C21 (stereo not given)
    6%, 4, -9, 3.9, -2.6%, -6%, .
> Cc1cccc(-n2nc(C)c3c2NC2=C(C(=O)CCC2)C3c2ccccn2)c1 (stereo not given)
    2%, -2, -2, 0.5, -1.6%, -15%, 0%[15.4 µM]
> CCOC(=O)c1c(C)c(C(=O)NCc2ccc(OC)cc2)c(C)n1C
    -9%, -9, -11, 2.3, ., -3%, -5%[15.4 µM]
> O=C(Nc1ccccc1)c1cccc2c(Br)cccc12
    1%, ., -5, 1.3, 3.8%, 1%, 25%
> CN(C)C(=O)CCc1ccc2c3c([nH]c2c1)[C@]1(CCC2CCCC2)[C@@H](C(=O)N2CCOCC2)C[C@H](CC(=O)NCCC2=CCCCC2)C(=O)N1CC3
    ., -2, ., ., 0.8%, -20%, .
> O=C(O)[C@H](Cc1ccccc1)N1Cc2ccccc2C1=O
    15%, -2, 2, -1.2, 0.6%, 4%, -27%
> CC(C)c1ccc(O)c(NC(=O)c2cncc(Br)c2)c1
    5%, -1, 21, 2.6, -1.6%, -5%, 17%

Other entries:
Results follow in this order: Sfp PPTase inh, CtBP-E1A blk, TRPV1 PAM, Menin-MLL FL inh, ClpP mod, gsp antagonist, gsp agonist
> N#CCCn1cc(C(=O)Nc2ccc(C(=O)O)cc2)c(-c2cc3ccccc3o2)n1
    7%, 0, 0, 0.3, ., 3%, 25%
> Cc1ccc(NC(=S)NNS(=O)(=O)c2ccc3ccccc3c2)cc1Cl
    -4%, 0, 5, -2.5, ., -3%, -34%[inhibitor]
> COc1cccc(-c2nc3c(c(=O)[nH]c(=O)n3Cc3ccccc3)n2CCO)c1OC(F)F
    0%, -1, ?, -0.7, ., 10%, 0%
> O=C(N/N=C/C(Cl)=C/c1ccccc1)c1ccncc1
    11%, -22, -16, -1.2, ., -22%, -2%[15.4 µM]
